VACV mCherry inh: inhibitors of vaccinia virus infection (mCherry reporter signal); Vaccinia virus mCherry reporter infection, fluorescence; about a quarter of the inactives have no number; Potency, µM (titrated, usually from 36.5 µM), without a hit: top-dose activity change, negative = inhibition, actives largely listed as inhibitors; actives 0.63% (n = 310,000); active = well fitted inhibition curve with a large enough effect; inconclusive = small, poorly fitted or top-dose-only effect; inactive = no such curve, though single readings can be large or run the other way; tested in A549 cells; further: nearly all actives have a fitted effect of over 35% in size; inactives centre near -10
Vaccinia Venus: vaccinia inhibition (Venus reporter). Vaccinia virus Venus reporter expression, fluorescence. actives 0.46% (n = 330,000). Potency, µM (highest dose often 36.5 µM), for inactives: at the top dose activity change, negative = inhibition, hits mostly inhibitors. AID 720580; active means well fitted inhibition curve with a large enough effect; inconclusive means small, poorly fitted or top-dose-only effect; inactive means no such curve, though single readings can be large or run the other way; tested in A549 cells; further: nearly all actives have a fitted effect of over 30% in size; inactives centre near -10
An asterisk follows results filed as active; i = inactive; u = inconclusive; x = no result given; & = joins results of further samples; [ ] = another dose, or the depositor's remark. On the % scale 0 is the no-effect control and ±100 the full control effect; potency means the concentration at half of the fitted maximal effect.

SMILES	VACV mCherry inh	Vaccinia Venus
Cc1ccc(-n2ncc3c(NC4CCCCCC4)ncnc32)cc1Cl	-7%	-8%
O=C(NN(C(=O)c1ccccc1)c1cccs1)c1ccccc1	-5%	-12%
Cc1sc(-c2ccncc2)nc1OC(=O)c1ccc(F)cc1F	-5%	-9%
CCOc1ccccc1NCc1cc(=O)oc2cc(C)ccc12	-22%	-16%
S=c1[nH]nc(COc2ccccc2)n1/N=C/C=C/c1ccccc1	-13%	-2%
Cc1ccc(/C=C/C(=O)Nc2cccnc2)o1	0%	-3%
COc1nc(N/N=C/c2ccc(C)cc2)nc(N2CCCCC2)n1	-9%	-5%
CNc1nc(NCCOC23CC4CC(CC(C4)C2)C3)nc(OCC(F)(F)F)n1	x	-4%
CCn1cc(C(=O)OCC(=O)Nc2ccc(F)cc2F)c(=O)c2ccc(C)nc21	3%	0%
COCCNc1cc(N)c([N+](=O)[O-])cc1[N+](=O)[O-]	3%	-3%
Cc1ccc(C)c(NC(=S)N(C)CCO)c1	i	-11%
CCn1c2ccccc2c2cc(NC(=O)c3cccc([N+](=O)[O-])c3C)ccc21	u	u
COc1ccccc1N1CCN(C(=O)CN(C)S(=O)(=O)c2ccc3c(c2)c(=O)n(C)c(=O)n3C)CC1	i	-10%
CCC(CC)C(=O)Nc1ccccc1-n1cccc1	x	-12%
COc1ccc(NC(=O)Nc2nnc(C)s2)cc1	-10%	-4%
NC(=O)CC[C@@H]1NC(=O)[C@@H]2CCCN2C(=O)c2cc([N+](=O)[O-])cc(I)c2NCCC[C@@H](C(N)=O)NC1=O	i	2%
O=C(Cn1cc2c(n1)CCCCC2)NCc1ccccn1	-2%	-1%
CC(OC(=O)COc1cccc2c1OC(C)(C)C2)C(=O)Nc1ccc(S(N)(=O)=O)cc1 (stereo not drawn)	-13%	-2%
CCOc1ccc(-c2nnn(CC(=O)NCc3ccc(C)cc3)n2)cc1	i	-11%
COC(=O)CC1C(=O)NCCN1C(=S)Nc1ccccc1 (stereo not drawn)	-14%	-1%
CCOC(=O)Nc1c(Cl)[nH]c(=O)n(C)c1=O	-13%	-2%
COc1ccc(NS(=O)(=O)c2cccc(C(=O)NCC3(N4CCOCC4)CCCCC3)c2)cc1	i	-17%
O=C(O)CC(=O)NC12CC3CC(CC(C3)C1)C2	-14%	-4%&-8%
Cc1c(Cl)cccc1NC(=O)C1CCN(S(C)(=O)=O)CC1	-11%	-3%
Cc1cccc(C)c1NC(=O)Nc1csc2c1CCCC2	-13%	-6%

Reformatted as labelled records: part of the list above
COc1ccc(NS(=O)(=O)c2cccc(C(=O)NCC3(N4CCOCC4)CCCCC3)c2)cc1
  VACV mCherry inh: i	Vaccinia Venus: -17%

O=C(O)CC(=O)NC12CC3CC(CC(C3)C1)C2
  VACV mCherry inh: -14%	Vaccinia Venus: -4%&-8%

(cont.)
SMILES	VACV mCherry inh	Vaccinia Venus
Cc1ccc(C(=O)c2c(C)oc3c2C(=O)C(=O)c2ccccc2-3)cc1	x	u
CC1=CC=CC2=NC(=O)CC(C)(C(=O)N(CC(=O)NC3CCCC3)Cc3ccc(Cl)cc3)N12 (stereo not drawn)	i	-16%
CCCCNC(=O)C1(C)CCN1C(=O)c1ccc2c(c1)C(C)(C)CCC2(C)C (stereo not drawn)	-22%	-17%
Oc1ccccc1CNc1nccs1	-27%	-13%
O=C(COC(=O)C1CCN(S(=O)(=O)c2cccs2)CC1)NCc1ccc(F)cc1	-5%	-4%
O=C1CCN(S(=O)(=O)c2ccccc2)C2CCCCC12 (stereo not drawn)	-7%	7%
Cc1ccc(NC(=O)COC(=O)c2cccnc2Cl)cc1S(=O)(=O)N1CCCCC1	-4%	2%
COc1ccc(C(=O)C(CCC(CNC(C)(C)C)C(=O)c2ccc(OC)cc2)CNC(C)(C)C)cc1 (stereo not drawn)	13µM*	11µM*
CCn1c(SCC(=O)NC2CCCCC2)nnc1-c1ccco1	0%	9%
CCC(CO)Nc1ncnc2c1cnn2-c1ccc(C)cc1 (stereo not drawn)	-4%	-6%
CCOCCc1nn2c(=O)cc(COC(=O)c3ccccc3NC(=O)c3ccccc3F)nc2s1	-23%	-13%
Cc1nc2ccccc2n1/C(=N\S(=O)(=O)c1ccccc1)c1ccccc1	-13%	-4%
O=[N+]([O-])c1ccc(/C=N/N2CCN(c3ccncc3S(=O)(=O)N3CCCCC3)CC2)cc1	-19%	-16%
O=C(C1CCN(S(=O)(=O)c2cccc3cccnc23)CC1)N1CCCC1	23%	-1%
COc1ccc(C(=O)NCC(c2ccco2)N(C)C)cc1S(=O)(=O)NCc1ccc(Cl)cc1 (stereo not drawn)	i	-13%
Cc1cccc(C(=O)N2CCC(n3nnc4cc(F)ccc43)CC2)c1	-10%	-13%
O=C(NCc1cccs1)c1cc(-c2ccccc2)nn1CC1CC(c2cccc([N+](=O)[O-])c2)=NO1 (stereo not drawn)	-2%	-11%
CCCN(CCC)C(=O)c1nn(C)c2c1CSc1ccccc1-2	-9%	0%
CC1CC(C)CN(C(=O)COC(=O)CCC(=O)c2cccs2)C1 (stereo not drawn)	i	-9%
O=C(COc1ccccc1)Nc1ccc(Cl)cc1C(=O)c1ccccc1	-8%	-7%
COc1ccc(-c2nc(-c3cccs3)no2)cc1	-12%	-18%
O=C1N[C@H](Cc2ccccc2)COC(=O)[C@@H](Cc2ccc(F)cc2)CC/C=C/C[C@H]1CC(=O)N(CCO)Cc1ccccc1	i	-28%
COc1cc2[nH]c(=O)c(C(=O)NCCCN3CCOCC3)c(O)c2cc1OC	-11%	-14%
CC1=C(CC(=O)O)c2cc(F)ccc2/C1=C/c1ccc(S(C)=O)cc1 (stereo not drawn)	-8%	1%
Cc1ccc2nc(CSc3nnc(NC(=O)CC(C)C)s3)cc(=O)n2c1	-11%	-16%

One compound at a time, from the list above. Order of values: VACV mCherry inh, Vaccinia Venus
O=C(NCc1cccs1)c1cc(-c2ccccc2)nn1CC1CC(c2cccc([N+](=O)[O-])c2)=NO1 (stereo not drawn) as listed: -2%, -11%
CC1CC(C)CN(C(=O)COC(=O)CCC(=O)c2cccs2)C1 (stereo not drawn) as listed: i, -9%

Continuation:
SMILES	VACV mCherry inh	Vaccinia Venus
CC(=O)Nc1ccc(S(=O)(=O)NC2(C(F)(F)F)NC(=O)N(c3ccccc3F)C2=O)cc1 (stereo not drawn)	0%&-14%	3%&2%
COC(=O)[C@H]1C[C@@]2(O)CN(S(=O)(=O)c3ccc(C)cc3)C[C@@]2(OC(=O)NCC2CCCCC2)C[C@H]1C(=O)OC	16%	-14%
Cc1cccc(NC(=O)CSc2nc3ccccc3c(=O)n2C)c1	i	-11%
CCCCn1c(O)c(/C=C/C=C/C=Nc2ccccc2)sc1=S	45%[activator]	58%[activator]
CC(=O)Nc1ccc2c(c1)ncn2-c1ccccc1	-27%	-8%
C[C@]12CC[C@@H]3c4ccc(O)cc4CC[C@H]3[C@@H]1C[C@@H](O)[C@@H]2O	-7%	-8%
Cc1cc(C)c(NC(=O)CNC(=O)Cc2sc(C)nc2-c2ccc(F)cc2)c(C)c1	-13%	-6%
C=C1CC[C@@]2(O)[C@H]3Cc4ccc(O)c5c4[C@@]2(CCN3CC2CC2)[C@H]1O5	-2%	-12%
COc1ccc(S(=O)(=O)NC(CC(=O)N2CCC3(CC2)OCCO3)C(C)C)cc1 (stereo not drawn)	-1%	-15%
COc1ccccc1OCC#CCSc1ncccn1	i	1%
C#CC(c1ccccc1)(c1ccccc1)n1ccnc1	-7%	-20%
CC(=O)c1ccc(OC(=O)c2c(-c3ccccc3Cl)noc2C)cc1	0%	7%
COc1cccc(-c2cnc3c(NC(C)=O)cc(-c4cc(OC)c(OC)c(OC)c4)cn23)c1	-20%	-27%
Cc1cc(Br)cn2c(Cc3ccsc3)c(C3CCCCC3)nc12	38%[activator]	13%
Cc1ncc(C(=O)O)c(C(=O)O)c1N	i	-3%
CC(C)OCCCN1CC(=O)N2[C@@H](Cc3c([nH]c4ccccc34)C2(C)C)C1=O	-23%	-24%
O=C(CCC(=O)N1CCN(S(=O)(=O)c2ccc(Cl)cc2)CC1)NCc1ccccc1	-3%	-5%
c1ccc(COC2COC3C(OCc4ccccc4)COC23)cc1 (stereo not drawn)	-14%	-11%
O=C(CCl)Nc1ccccc1C(=O)Nc1ccc2c(c1)OCO2	-27%	-28%
O=C(COC(=O)/C=C/c1ccccc1Cl)NC(=O)Cc1ccccc1	-12%	-10%
CC(Cc1ccccc1)NCc1ccccc1O (stereo not drawn)	-23%	-12%
O=C(CSc1ncnc2c1oc1ccccc12)NC1CCCCC1	u	u
O=C(COC(=O)C1CCC(=O)N1)Nc1ccccc1Br (stereo not drawn)	-11%	-16%
Cc1cccc(-c2nc3c(c(SCC(=O)N4CCOCC4)n2)Cc2c(CO)cnc(C)c2O3)c1	i	-10%
Cn1c(SCc2ccccc2[N+](=O)[O-])nnc1-c1cccnc1	-21%	0%

Remaining list, next part:
SMILES	VACV mCherry inh	Vaccinia Venus
COc1ccc(-n2nnnc2S(=O)(=O)CC(=O)N2CCCCC2)cc1	13µM*	u
CC(C)(C)c1ccc(C(=O)NC2=NC(c3cccc(F)c3)CC(=O)N2)cc1 (stereo not drawn)	-19%	-8%
CN(C)/C=C(\C(=O)c1ccc(Cl)cc1)c1nnnn1-c1ccc(Cl)cc1	-4%	-21%
O=C(NCCCn1ccnc1)/C(=C\c1cccs1)NC(=O)c1ccco1	0%	-2%
CCN(CC)S(=O)(=O)c1cccc(NC(=O)c2ccc(-n3nc(C)cc3C)cc2)c1	u	u
CCN(CCCNC(=O)c1cc2c(-c3cccc(OC)c3)nn(C)c2s1)Cc1ccccc1	-1%	u
NS(=O)(=O)c1ccc(CNC(=O)CSc2ccccc2)cc1	i	-10%
Cc1cc(C(=O)CSc2nc(N)cc(=O)[nH]2)c(C)n1CC1CCCO1 (stereo not drawn)	-19%	0%
CSCc1cc(N(C)C)nc(SCc2ccc(Cl)c(Cl)c2)n1	-23%	0%
O=C(NC(=S)N1CCN(c2ccc([N+](=O)[O-])cc2)CC1)c1ccc(F)cc1	-30%	-25%
CCOC(=O)C1(CC2CCCCO2)CCN(C(=O)Nc2ccc(SC)cc2)CC1 (stereo not drawn)	i	-12%
CCOC(=O)CN1C2=NCCN2c2ccccc21	x	12%
Cn1cnc2c(NCc3ccccc3)nc(Cl)nc21	-8%	-16%
O=C(c1ccc(S(=O)(=O)N2CCCC2)cc1)N1CCCC(C(F)(F)F)C1 (stereo not drawn)	i	-19%
O=C(NCc1ccccc1)C1CCCN1S(=O)(=O)c1cccc2cccnc12 (stereo not drawn)	4%	-6%
CC(=O)Nc1cc(N=Cc2ccc(O)cc2O)c(Cl)cc1Cl	-9%	46%[activator]
COc1cccc(/C=C2/CCC(CN(C)C)C2=O)c1 (stereo not drawn)	-3%	-9%
CCN1CCC(CN2CCNC2=S)CC1	i	-2%
COc1ccc(C=O)cc1CN1C(=O)c2ccccc2C1=O	i	-7%
O=C(CSc1nc(C2CCCCC2)nc2ccccc12)NCc1ccc2c(c1)OCO2	-21%	-26%
COc1cccc(CNC(=O)[C@@H]2CCCN2C(=O)[C@@H]2CCCN2S(=O)(=O)c2ccc(OC)c(C)c2)c1	5%	8%
Cc1cc(S(=O)(=O)N2CCN(Cc3ccccc3)CC2)c(C)s1	-20%	-7%
CN1CCN(C(=O)CCN2C(=O)/C(=C/c3cccc(Br)c3)SC2=S)CC1	u	66%[activator]
NS(=O)(=O)c1ccc(NC(=O)Nc2cccc(Cl)c2)cc1	-11%	-11%
Cc1ccc(NCc2cccn2-c2nnc(N3CCC(C(=O)NCCC(C)C)CC3)s2)cc1	-15%	u

(continued)
SMILES	VACV mCherry inh	Vaccinia Venus
CCc1nnc(SCc2nc(-c3cccc(Cl)c3)oc2C)c2cc3sc(C)cc3n12	i	-11%
Cc1ccc(OCCCC(=O)N2CCOCC2)c(C)c1	-9%	-3%
O=C(COc1cccnc1[N+](=O)[O-])Nc1cccc2ccccc12	-5%	-16%
CCOC(=O)C(=Cc1ccc(-n2cncn2)cc1)C(=O)OCC	u	u
Cc1ccc(NC(=O)C2(C)CCCN2C)cc1C (stereo not drawn)	i	-15%
Cc1ccc(S(=O)(=O)N2CCC(C(=O)N3CCCCCCC3)CC2)cc1C	-7%	-19%
COc1ccc(C2(C(=O)Nc3ccc(C(=O)O)cc3)CCOCC2)cc1	i	-10%
Cc1cc(C)cc(CC(=O)N2CCC2(C)C(=O)NS(=O)(=O)c2cccc(OC(F)F)c2)c1 (stereo not drawn)	i	-6%
COc1cccc(N2CCN(C(=O)c3cnc4c(-c5ccc(F)cc5)c(C)nn4c3C)CC2)c1	-6%	-14%
O=C1NC[C@H](CCCCN2CCN(Cc3ccccc3)C(=O)C2=O)N(CCC2CCCCC2)C1=O	20%	-12%
Cc1cc(=O)n2[nH]c(SCc3ccc(Cl)cc3)nc2n1	i	-13%
CCC(=O)Nc1cccc(NC(=O)CSc2nnnn2C2CCCC2)c1	i	-3%
CCOc1cc(/C=C(\C#N)C(=O)Nc2cccc(C(=O)O)c2)ccc1OCc1ccc(Br)cc1	i	4%
O=[N+]([O-])c1cccc(CSc2cccc[n+]2[O-])c1	-2%	-14%
CCOC(=O)c1cc(-c2ccc(OC)cc2)n(CCC(=O)NCc2ccc(OC)cc2)c1C	0%	-4%

Sorted by number of heavy atoms (largest number first): some entries from above.
SMILES	VACV mCherry inh	Vaccinia Venus
O=C1NC[C@H](CCCCN2CCN(Cc3ccccc3)C(=O)C2=O)N(CCC2CCCCC2)C1=O	20%	-12%
CCOc1cc(/C=C(\C#N)C(=O)Nc2cccc(C(=O)O)c2)ccc1OCc1ccc(Br)cc1	i	4%
Cc1cc(C)cc(CC(=O)N2CCC2(C)C(=O)NS(=O)(=O)c2cccc(OC(F)F)c2)c1 (stereo not drawn)	i	-6%
O=C(COc1cccnc1[N+](=O)[O-])Nc1cccc2ccccc12	-5%	-16%
